High-throughput results: PubChem BioAssay, several laboratories
MT1-MMP act inh: MT1-MMP (human) activation inhibition; P50281; HT1080 RFP-PRO-GFP cells, GFP/RFP ratio fluorescence, overnight; percent of plate control window, DMSO zero; AID 651647; GFP/RFP ratio change, % at 20 µM; 360,000 compounds, 0.061% hits;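 active = GFP/RFP ratio change of at least 30% with cell ATP level not reduced by more than half and red fluorescence within 50% of control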; also: strong numbers were not always called active
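Assay system: HT1080 cells carrying an RFP-PRO-GFP reporter | Dosing: Single dose of 20 µM compound, 1% DMSO final | Incubation: Cells overnight before dosing, compound overnight, 37 °C, 5% CO2 | Evaluation: GFP/RFP fluorescence ratio | Control set: DMSO and RFP-L50D-GFP cell wells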
PABP polyA inh: blocks human PABP binding to poly(A) RNA | fluorescence polarization | inhibition, % at 35 µM | 290,000 compounds, 1% hits;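 active = 50% or more with normal probe brightness, or confirmed in later tests; inconclusive = above 50% with abnormal brightness, or retests that disagree; inactive = below 50% or failed in later tests; about a fifth of its hits are not listed in these tables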;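 also: calls also rest on retests at 20 µM and on dose response follow-up; controls were probe without protein and protein plus probe with vehicle; some compounds called inactive have numbers as strong as hits; many hits fall short of the cut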
Target sequence (P11940 whole entry, looked up): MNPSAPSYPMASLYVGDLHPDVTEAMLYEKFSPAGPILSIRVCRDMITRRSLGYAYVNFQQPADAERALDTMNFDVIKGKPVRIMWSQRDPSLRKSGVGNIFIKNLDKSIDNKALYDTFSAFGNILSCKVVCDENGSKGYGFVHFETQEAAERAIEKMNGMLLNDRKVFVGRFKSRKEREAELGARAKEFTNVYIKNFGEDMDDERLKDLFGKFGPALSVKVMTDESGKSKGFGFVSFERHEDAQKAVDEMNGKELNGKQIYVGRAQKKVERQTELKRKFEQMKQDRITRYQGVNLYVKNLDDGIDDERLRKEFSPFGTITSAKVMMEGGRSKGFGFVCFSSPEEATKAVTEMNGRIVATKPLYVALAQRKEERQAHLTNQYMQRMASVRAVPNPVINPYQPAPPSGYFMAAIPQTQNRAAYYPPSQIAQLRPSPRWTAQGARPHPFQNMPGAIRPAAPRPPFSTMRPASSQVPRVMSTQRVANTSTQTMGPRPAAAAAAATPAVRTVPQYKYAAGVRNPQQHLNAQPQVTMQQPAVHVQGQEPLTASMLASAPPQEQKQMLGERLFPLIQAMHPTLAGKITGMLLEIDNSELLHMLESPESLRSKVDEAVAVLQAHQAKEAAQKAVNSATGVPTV
HIV Env fusion: inhibitors of HIV Env-mediated cell fusion. 360,000 compounds, 1.1% hits. AID 651610. HeLa-JRFL Env/CEM21 cell fusion, luciferase. inhibition, % at 12.3 µM;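 active = mean replicate inhibition score of at least 50 and every replicate individually at or above 50; inconclusive = only one of the two criteria met; inactive = mean below 50 and not all replicates reaching 50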;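 also: 0% = plate neutral controls and 100% = maraviroc near 300 nM; one replicate is shown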
Yeast UUG start: yeast start codon fidelity modulation; S. cerevisiae UUG-firefly luciferase reporter, luminescence/redox ratio; activity score, % at 18.7 µM; 350,000 compounds, 0.13% hits; AID 602363;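 active = replicate mean at a twofold rise or more, about +100% in these data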;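 also: firefly luciferase made from a UUG start codon reports start codon fidelity; reporter light over untreated wells divided by growth signal over untreated wells; some hits fall short of that in this replicate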
Rce1 inh: inhibitors of yeast Ras-converting enzyme; 290,000 compounds, 0.27% hits; Q03530; AID 2563; yeast membranes, quenched prenylated peptide cleavage fluorescence; calls only;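 active = fall in fluorescence gain of 50% or more versus controls, with final raw signal at or below 3038400; inconclusive = same 50% fall but final raw signal above 3038400; inactive = fall in fluorescence gain under 50%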;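 also: plate controls were neutral control wells for no effect and wells lacking membranes for full effect; tested at 10 µM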
Target sequence (Q03530 whole entry, looked up): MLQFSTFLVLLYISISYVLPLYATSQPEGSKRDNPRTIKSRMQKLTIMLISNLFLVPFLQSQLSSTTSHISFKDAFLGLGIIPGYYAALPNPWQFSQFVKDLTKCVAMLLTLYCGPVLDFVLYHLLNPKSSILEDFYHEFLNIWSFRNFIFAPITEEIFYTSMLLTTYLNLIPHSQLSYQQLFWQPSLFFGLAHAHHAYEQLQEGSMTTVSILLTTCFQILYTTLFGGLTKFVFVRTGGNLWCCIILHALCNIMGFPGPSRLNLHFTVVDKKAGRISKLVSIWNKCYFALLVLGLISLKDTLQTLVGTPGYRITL
eIF4H inh: inhibitors of RNA binding by human eIF4H. Q15056. eIF4H fluorescence polarization binding assay. inhibition, % at 35 µM. 290,000 compounds, 0.94% hits;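 active = 50% or more with normal probe brightness, or confirmed in later tests; inconclusive = above 50% with abnormal brightness, or retests that disagree; inactive = below 50% or failed in later tests; about a fifth of its hits are not listed in these tables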;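 also: calls also rest on retests at 20 µM and on dose response follow-up; 0% = protein and probe with vehicle and 100% = probe without protein; strong numbers were not always called active; many hits fall short of the cut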
CSC inhib: blocks cancer stem cells; cancer stem cell-like cells viability, luminescence; inhibition, % at 7.5 µM; 300,000 compounds, 1.1% hits;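 active = mean at 75% or more and at least half the replicates too; inconclusive = mean and replicates disagree; tested in HMLE shEcad cells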;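 also: 0% = median of negative and 100% = median of positive control wells; the first replicate is given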
eIF4H inh retest: second read-out of eIF4H inh, no call of its own (marks repeat the call); inhibition, %; compound at 20 µM; confirmation average;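 mean of two retest wells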
PABP polyA inh retest: further read-out of PABP polyA inh, marked with its call; inhibition, %; compound at 20 µM; confirmation repeats;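 mean of two retest wells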
MT1-MMP act inh RFP: recorded beside MT1-MMP act inh, whose call it bears; RFP signal change, %; measured here: RFP expression control read;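 0 = vehicle wells; hits needed this value within 50% of zero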
Numbers without * were called inactive; i = inactive; ? = inconclusive; . = no result given; & = joins results of further samples. A portion of the library (hit frequency here may not be typical).

The opening three entries, to show the layout:
SMILES	MT1-MMP act inh	MT1-MMP act inh RFP	PABP polyA inh	HIV Env fusion	Yeast UUG start	Rce1 inh	eIF4H inh	CSC inhib	others
COc1cc(C(=O)Nc2cccc3ncccc23)cc(OC)c1OC	-1	-5	1	.	3	i	-4	-9
O=C(CNCc1ccc(Cl)cc1)NCc1ccco1	-1	6	-6	-9	-6	i	6	-1
CCn1c(SCC(=O)Nc2ccc(NC(C)=O)cc2)nnc1C1CC1	-14	-5	-11	-9	-12	i	-6	4

The listing, from the start:
SMILES	MT1-MMP act inh	MT1-MMP act inh RFP	PABP polyA inh	HIV Env fusion	Yeast UUG start	Rce1 inh	eIF4H inh	CSC inhib	others
COc1cc(C(=O)Nc2cccc3ncccc23)cc(OC)c1OC	-1	-5	1	.	3	i	-4	-9
O=C(CNCc1ccc(Cl)cc1)NCc1ccco1	-1	6	-6	-9	-6	i	6	-1
CCn1c(SCC(=O)Nc2ccc(NC(C)=O)cc2)nnc1C1CC1	-14	-5	-11	-9	-12	i	-6	4
COc1ccccc1NC(=O)C(=O)Nc1ccccn1	-6	2	-7	.	-32	i	-13	-17
CN(C)CCNc1ncnc2c1cnn2-c1ccc(Cl)cc1	-1	-1	-1	-49	-21	i	-4	12
Nn1c(Cc2cccc3ccccc23)nnc1SCC(=O)N1CC(=O)Nc2ccccc21	2	-1	51	.	-7	i	16	-12	eIF4H inh retest=11;PABP polyA inh retest=0
COC(=O)C1=C(C(=O)OC)[C@@H]2N(C)c3ccccc3[C@@]23C[C@@H](C(=O)OC)N(C(=O)COCc2ccccc2)C3=N1	-4	-2	4	.	-16	i	5	4
Cc1cc(NC(=O)c2cccc(F)c2)ncc1NC(=O)c1ccco1	-4	0	4	-146	-33	i	4	-7
COc1ccc(N(CC(=O)Nc2ccc(C)cc2C)S(=O)(=O)c2c(C)n[nH]c2C)cc1	1	-2	.	-1	12	i	.	-2
O=C1c2ccccc2NC(c2cccc(O)c2)N1Cc1ccco1 (centres undefined)	4	1	7	1	-12	i	-1	1
CS(=O)(=O)N1CCc2cc(C(=O)N3CCN(c4ccccc4)CC3)ccc21	4	0	2	-7	9	i	-7	-1
CCc1cc2c(C)cc(=O)oc2cc1OC(=O)C1CCCN1C(=O)OC(C)(C)C (centres undefined)	.	.	6	.	1	i	-5	-2
COCc1nc(-c2ccc(-c3ccc(C)cc3)nc2OC)no1	-2	1	1	-83	-2	i	-4	10
C#CCOCCOCCOCCNc1nc(N2CCN(C(=O)C(Cc3ccc(O)cc3)n3cc(C(N)C(C)CC)nn3)CC2)nc(N2CCN(C(=O)C(Cc3ccc(O)cc3)n3cc(C(N)C(C)CC)nn3)CC2)n1 (centres undefined)	2	2	11	-19	-5	i	-5	1
CCOc1ccc(-c2c(C(=O)N/N=C/c3ccoc3)nnn2-c2nonc2N)cc1	0	1	3	-16	-16	i	-4	3
Cc1ccc(N(C(=O)c2ccco2)C2C=CS(=O)(=O)C2)cc1 (centres undefined)	1	2	-3	5	.	i	-11	-6
COc1ccc(C(CCNCc2ccccc2)c2ccc(F)cc2)cc1 (centres undefined)	0	-13	5	-15	-16	i	-1	11
COc1ccccc1C(=O)NC(=S)NC12CC3CC(CC(C3)C1)C2	-5	-1	2	-16	-3	i	-2	32
CCOC(=O)C1=C(c2ccccc2)NC(=O)NC1c1ccc(N(C)C)cc1 (centres undefined)	4	3	23	.	-29	i	5	8
COc1ccc(NC(=O)C2CC(=O)N/C(=N/NC(=O)c3ccc(Cl)cc3)S2)cc1 (centres undefined)	7	5	-3	4	.	.	0	11
CN1CCN(c2ncnc3c2ncn3[C@H]2CN(Cc3ccc(Cl)cc3)C[C@@H](CO)O2)CC1	1	5	.	6	1	.	.	.
O=C(Nc1nc2c(s1)COc1ccccc1-2)c1cccs1	25	-20	7	-116	-20	i	-10	21
COc1ccc(NC(=O)COc2ccc(C(=O)NC3CCCc4ccccc43)cc2OC)cc1 (centres undefined)	4	6	12	-44	.	i	8	-2
CCCCCCc1nc(C(N)=O)c2[nH]c(=O)n(-c3ccccc3F)c2n1	-1	-8	2	.	-9	i	-9	-11
COc1ccc(NC(=O)CSc2nnc(Cc3ccccc3)c(=O)n2N)c(OC)c1	2	-6	.	-16	.	i	.	-12
CCN(CC(=O)Nc1ccccc1C(F)(F)F)C(=O)CCc1nc2ccccc2c(=O)[nH]1	0	4	-1	-166	-14	i	2	-6
CCn1c(SCc2cc(=O)[nH]c3ccccc23)nc2c1c(=O)n(C)c(=O)n2C	6	-2	.	20	.	.	.	14
COc1ccc(CCNC(=O)CCN2C(=O)c3cccc4cccc(c34)C2=O)cc1OC	1	0	-14	-16	.	i	7	-4
Cc1cc(-c2csc(N)n2)c(C)n1-c1ccccc1	8	21	-5	11	.	i	?	6
Cc1onc(-c2ccccc2Cl)c1C(=O)Nc1nn[nH]n1	5	2	12	.	-27	.	-21	-6
Cc1cccc(N2CCN(S(=O)(=O)c3ccc4c(c3)OCCO4)CC2)c1C	3	1	2	11	-12	i	-3	3
COC(=O)c1ccc2c(c1)NC(=O)C(N(CC(C)C)CC(C)C)S2 (centres undefined)	-9	3	-3	1	2	i	18	-8
Cc1ccc(CNC(=O)C2CC2c2ccccc2)cc1 (centres undefined)	1	3	6	11	-6	i	-10	-17
COc1cc(NC(=O)c2ccco2)c(OC)cc1NC(=O)CCC(=O)Nc1cc(C)cc(C)c1	2	-2	10	-33	-8	i	-5	-13
O=C(OCn1nnc2ccccc2c1=O)c1cccnc1Cl	4	-1	-8	-71	-6	i	-5	-5
Cc1ccccc1N=C1c2cc([N+](=O)[O-])ccc2-c2ncccc21	-5	0	-4	5	-7	i	8	-17
FC(F)(F)c1cccc(Nc2nc(N3CCCC3)nc(N3CCCC3)n2)c1	-8	-8	1	2	.	i	-5	9
CC(C)(C)CC(C)(C)c1ccc(OCC(=O)N/N=C/c2ccc(S(=O)(=O)O)o2)cc1	-1	2	7	12	-18	i	5	-2
COc1cccc(C2c3c(oc4cc(C)c(C)cc4c3=O)C(=O)N2CCCN(C)C)c1 (centres undefined)	0	0	0	.	8	i	2	-4
CCC(CO)NCc1ccccc1OC(C)C (centres undefined)	4	3	10	3	.	i	10	1
CC(C)OC(=S)N/C(=N\S(=O)(=O)c1ccccc1)c1ccccc1	2	2	0	-6	-15	i	9	.
C=C(C)Cn1c(SCC(=O)N/N=C/c2ccccc2)nc2ccccc2c1=O	-5	-2	-1	2	-14	i	-4	24
CCc1ccccc1NC(=O)CSc1nnc([C@@H](NC(=O)OC(C)(C)C)C(C)C)o1	0	-3	-13	18	11	i	-2	-15
CCCc1cc2c(=O)c(-c3ccc4c(c3)OCCO4)coc2cc1OC(=O)c1ccco1	-12	-4	-11	.	-7	i	-12	89*
COc1cccc(NC(=O)c2ccccc2-c2nc(-c3ccc(Cl)cc3)no2)c1	-7	-8	4	.	-17	.	1	-1
CC(C)c1nc(SCC(=O)NC2CCCC2)c2ccccc2n1	-2	-9	5	-1	-7	.	0	1
O=C(C[n+]1ccccc1)N/N=C/c1cc(Br)ccc1F	4	4	.	-3	-11	.	.	-5
N#CCCn1nc(-c2ccc([N+](=O)[O-])cc2)cc1Nc1ccccc1NC(=O)C(F)(F)F	3	-7	1	17	.	i	-1	-9
CC(C)C(c1nnnn1Cc1ccc(F)cc1)N1CCC(C(N)=O)CC1 (centres undefined)	1	2	-5	1	.	i	7	-2
CC(C)CC(C(=O)OCC(=O)Nc1ncc(Cl)cc1Cl)N1C(=O)c2ccccc2C1=O (centres undefined)	-3	6	11	.	-23	i	1	-18

(cont.)
SMILES	MT1-MMP act inh	MT1-MMP act inh RFP	PABP polyA inh	HIV Env fusion	Yeast UUG start	Rce1 inh	eIF4H inh	CSC inhib	others
COc1cc(OC)c(OC)cc1CNC(=O)c1cc(=O)c2ccccc2o1	1	-3	10	-9	-11	i	10	-2
CC1CN(C(=O)CNC(=O)COc2ccccc2)CC(C)O1 (centres undefined)	-1	-3	.	-11	-15	.	.	-4
CC(C)(C)NC(=O)C(c1ccccc1)N(C(=O)c1ccco1)C1CC1 (centres undefined)	-1	2	-2	-21	-23	i	5	5
C/C(N)=C(/C#N)C(=O)CSc1nc2ccc(C)cc2[nH]1	-8	0	15	-109	8	i	2	-16
COC(=O)N/N=C/c1ccc(-c2cc(Cl)ccc2Cl)o1	0	-2	-8	-37	.	i	3	-9
CCc1nc2ccc(C(=O)NCCC(C)C)cn2c1N(CCN(C)C)CC1CC1	-5	1	.	5	-12	.	.	.
CC(C)NC(=O)CSc1ccccc1C(=O)NCc1ccc2c(c1)OCO2	2	1	12	.	2	i	-14	4
Cn1c(SCc2cnc(-c3ccccc3)s2)nnc1C1COc2ccccc2O1 (centres undefined)	10	-3	-4	.	-21	i	-10	4
CC(C)Oc1ccc(C2CCC(=O)NC2=O)cc1 (centres undefined)	2	3	2	-18	.	i	-6	-12
COC(=O)c1ccc(OC(=O)c2nn(C)cc2Cl)c(OC)c1	6	7	-2	-11	-7	i	4	-5
C[C@@H]1CN([C@H](C)CO)S(=O)(=O)c2ccc(C#Cc3ccccc3F)cc2O[C@H]1CN(C)C(=O)c1ccc2c(c1)OCO2	-19	-24	.	-13	-12&-6	.	.	.
Cc1[nH]c(=O)[nH]c(=O)c1S(=O)(=O)N(CC(C)C)CC(C)C	0	-1	-3	-8	6	i	1	-4
CCCCC1CCC(C(=O)N2CCOCC2)CC1 (centres undefined)	-2	-6	-3	7	.	i	-8	-2
CSc1ccc2c(c1)N(CCC1CCCCN1C)c1ccccc1S2 (centres undefined)	-15	-10	6	-42	1&-3	i	-12	37
CCCCCCN(C(=O)CCCCCN1C(=O)NC(c2ccc(-c3ccccc3)cc2)C(C(=O)OCc2ccccc2)=C1C)C(C(=O)NCCCC)c1cccc(C(=O)OC)c1 (centres undefined)	.	.	-14	11	.	i	-14	.
O=C(c1ccc2c(c1)C(=O)N(Cc1ccco1)C2=O)N1CCOCC1	-3	2	2	.	-13	i	2	-11
CC(C)(C)c1cc(NC(=O)NN2CCOCC2)nn1-c1c(Cl)cc(Cl)cc1Cl	-2	1	-13	-64	.	.	-6	-7
Cc1ccc(Cc2c(C(C)(C)C)nc3cc(C)c(Br)c(C)n23)cc1	-1	-2	.	3	-15	.	.	.
CCOC(=O)c1c(NC(=O)C2C3C=CC(C3)C2C(=O)O)sc2c1CCC(C)C2 (centres undefined)	2	1	28	-18	-23	i	1	-7
O=C(c1cc(C(=O)N2CCN(c3ccc(F)cc3)CC2)cc([N+](=O)[O-])c1)N1CCN(c2ccc(F)cc2)CC1	5	-31	2	23	16	i	0	1
CCOC(=O)c1nc(Nc2ccc(C(=O)OC)cc2)c2ccccc2n1	3	-5	2	.	-20	i	6	-16
CC(C)C[C@@H](CSc1ccccc1)N1CCN(C)CCC1=O	-2	1	3	-16	-5	i	-10	7
CC(C)C(C)NC(=O)CSc1nc2scc(-c3ccco3)c2c(=O)n1-c1ccccc1 (centres undefined)	-4	-5	35	.	.	i	10	-13
COc1ccc(CC(=O)Nc2sc(Cc3ccccc3)c(C)c2C(N)=O)cc1	2	1	-6	-19	-2	i	-16	-6
CCO[C@H]1OC(C(=O)N2CCCCCCC2)=C[C@@H](C)[C@@H]1CCCO	4	4	1	-16	-7	i	2	-4
